GLA inh pH 4.5: qHTS Assay for Inhibitors of Human alpha-Galactosidase at pH 4.5. purified enzyme, 4-MU-alpha-Gal fluorescence, pH 4.5. AID 1467, 2008. Alpha-galactosidase A (Homo sapiens), P06280. activity change, negative = inhibition, % at 105 µM. 230,000 tested, under 10 active; inconclusive = small, poorly fitted or top-dose-only inhibition, or a rising curve; inactive = flat fitted curve, though single readings scatter; no compound was filed as active;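 note: 0% = full activity with enzyme and -100% = basal without enzyme; dose as in the result columns while the protocol names 77 µM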
Rango-impB inh: qHTS Assay for Inhibitors of Rango (Ran-regulated importin-beta cargo) - Importin beta complex formation; Importin subunit beta-1 (Homo sapiens), Q14974; Rango CFP/YFP FRET sensor + importin beta, 45 min; Potency, µM (doses to about 92.2 µM), inactives show at the top dose inhibition of complex formation; 340,000 compounds, 0.031% hits; AID 540263, 2011; active = rising FRET ratio curve, often small or poorly fitted; inconclusive = mostly compound fluorescence or quenching in the first reads; inactive = flat curves in all reads;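 note: potency is the fitted concentration of half-maximal effect; 0% = DMSO wells and 100% = buffer wells lacking importin beta; nearly all actives have a fitted effect of over 15% in size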
Target sequence (Q14974 whole entry, looked up): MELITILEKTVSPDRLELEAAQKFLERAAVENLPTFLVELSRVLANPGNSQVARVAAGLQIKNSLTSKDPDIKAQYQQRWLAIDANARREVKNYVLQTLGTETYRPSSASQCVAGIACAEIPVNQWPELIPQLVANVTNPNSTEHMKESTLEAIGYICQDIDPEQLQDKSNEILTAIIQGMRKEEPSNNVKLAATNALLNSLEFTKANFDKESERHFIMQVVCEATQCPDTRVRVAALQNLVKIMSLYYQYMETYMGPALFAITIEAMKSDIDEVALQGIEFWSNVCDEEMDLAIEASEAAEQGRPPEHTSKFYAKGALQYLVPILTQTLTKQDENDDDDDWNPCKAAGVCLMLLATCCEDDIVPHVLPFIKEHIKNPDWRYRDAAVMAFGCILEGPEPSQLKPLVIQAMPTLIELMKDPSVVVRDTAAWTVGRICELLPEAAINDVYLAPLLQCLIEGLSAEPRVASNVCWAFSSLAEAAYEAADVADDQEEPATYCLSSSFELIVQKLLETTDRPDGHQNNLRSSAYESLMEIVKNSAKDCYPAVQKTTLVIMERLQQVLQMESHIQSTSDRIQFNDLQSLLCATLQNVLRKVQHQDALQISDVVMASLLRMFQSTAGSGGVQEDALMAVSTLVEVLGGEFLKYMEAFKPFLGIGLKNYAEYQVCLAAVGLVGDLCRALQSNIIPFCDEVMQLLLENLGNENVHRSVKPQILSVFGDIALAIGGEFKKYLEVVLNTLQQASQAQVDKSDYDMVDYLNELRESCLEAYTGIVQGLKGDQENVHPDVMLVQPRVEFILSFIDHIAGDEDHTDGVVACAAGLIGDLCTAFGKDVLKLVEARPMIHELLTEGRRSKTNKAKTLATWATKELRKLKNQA
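FRET biosensor Rango (snurportin 1 IBB between N-terminal EYFP and C-terminal Cerulean), 50 nM in PBS/1 mM DTT/0.02% Tween-20/0.1% BSA, preincubated 5 min RT with compound; 0.125 microM importin beta added, 45 min RT, CFP/YFP FRET ratio read.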
Rango release inh: qHTS Assay for Inhibitors of RanGTP induced Rango (Ran-regulated importin-beta cargo) - Importin beta complex dissociation; Snurportin-1 (Homo sapiens) + GTP-binding nuclear protein Ran (Homo sapiens) + Importin …; Potency, µM (top dose mostly 46.1 µM), for the others: at the top dose activity change, negative = inhibition; AID 540253, 2011; 340,000 compounds, 0.071% hits; Biochemical FRET Rango-importin beta, RanGTP-induced dissociation; active means falling FRET ratio curve, often poorly fitted, with flat reads before Ran was added; inconclusive means other falling curves, or compound fluorescence or quenching; inactive means flat or rising ratio curve;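 note: potency is the fitted concentration of half-maximal effect; % of control where 0% means no effect; nearly all actives have a fitted effect of over 45% in size; -100% = wells without RanGTP and RCC1; the record marks most hits as doubtful in a second field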
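Two FRET readings bracket the reaction: one 5 min after compound meets Rango–importin beta, another 45 min after RanGTP-RCC1 (0.6 uM Ran, 0.2 uM RCC1, 2 mM GTP) is added. Only the second defines inhibition.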
miR-21 reporter: qHTS Assay for Modulators of miRNAs and/orActivators of miR-21; HeLa miR-21 FLuc reporter, luciferase, 48 h; Potency, µM (titrated, usually from 38.3 µM), without a hit: top-dose reporter change, positive = more light; 340,000 tested, under 10 active; AID 2288, 2010; active = well fitted rising curve with a large enough effect; inconclusive = small, poorly fitted or top-dose-only effect; inactive = no such curve, though single readings can be large or run the other way;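 note: % of control where 0% means no effect; miR-21 action dims this reporter so a rising signal means less miR-21 action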
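HeLa cells stably expressing CMV-driven firefly luciferase with a downstream miR-21 binding sequence, endogenously expressing miR-21, were treated with titrations (up to about 40uM final) for 48 hours at 37 degree Celsius. Luciferase luminescence was read after lysis.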
* marks the source's active call; other numbers are inactive results; u = inconclusive; x = not tested or not shown. Not all compounds are listed; rates above refer to the full screens.

structure,GLA inh pH 4.5,Rango-impB inh,Rango release inh,miR-21 reporter
CC1=C(C)[N+](=O)C2CCCCC2N1[O-] (stereo not given),3,0.8%,17%,-8%
CCC/C(=N/NC(=O)c1ccc2c(c1)OCO2)c1cccs1,11,-3.7%,1%,-47%
C[C@@H]1CCC(=O)N(CC[C@H](Sc2ccccc2)c2ccccc2)CC1,x,1.1%,5%,-1%
Cc1ccc(/C=N/n2c(C3CCCCC3)n[nH]c2=S)o1,-5,1.7%,8%,-7%
CCN(c1ccc2c(c1)OCO2)S(=O)(=O)c1cc2c(cc1Br)CCN2C(=O)C1CC1,x,3.6%,-7%,x
COc1cc(C)ccc1OCc1cc(C(=O)NCCN2CCOCC2)no1,x,-3.6%,-7%,-53%
O=C(OCC(=O)N1CCOCC1)c1ccc(Br)cc1,x,-0.2%,31%,-31%
O=C(Nc1ccc(NC(=O)c2sc3ccccc3c2Cl)cc1)c1ccco1,0,0.6%,-7%,-14%
CC(=O)Nc1ccc(S(=O)(=O)N2CCN(S(=O)(=O)c3cccs3)CC2)cc1,x,-2.0%,20%,x
CCN(Cc1ccncc1)C(=S)NCc1ccccc1,7,-1.5%,-1%,-5%
C[C@@H]1C[C@H]2[C@@H]3CCC4=CC(=O)C=C[C@]4(C)[C@@]3(F)[C@@H](O)C[C@]2(C)[C@H]1C(=O)CO,-13,1.2%,-9%,-27%
CCCNC(=O)c1ccc(Cl)cc1Cl,-1,-2.3%,0%,-16%
CCCCNC(=O)Nc1nnc(C(C)(C)C)s1,-3,-0.1%,-4%,-27%
COc1ccccc1NC(=O)CSc1nnc(NC(=O)C2CCC2)s1,x,0.0%,1%,1%
O=C(Nc1ccc(Cl)c(Cl)c1)Oc1ccc(NC(=O)c2ccco2)cc1,-1,-0.5%,9%,-3%

Continued:
structure,GLA inh pH 4.5,Rango-impB inh,Rango release inh,miR-21 reporter
Cc1cccc2c1N(C)C(=O)C2=O,0,4.6%,16%,2%
S=C(Nc1cccc(Cl)c1)Nc1ccc2cn[nH]c2c1,0,3.5%,-4%,-31%
COc1ccccc1-n1ccn(CC(=O)Nc2ccc(C)cc2Cl)c(=O)c1=O,x,7.8%,1%,x
Cc1nnc(SCc2ccc(Cl)cc2)nc1/C=C/N(C)C,-6,u,u,4%
CCOc1ccccc1N1CCN(CC(O)COC2CCCc3ccccc32)CC1 (stereo not given),x,-0.5%,-21%,0%
CCNc1cc2n(c(=O)n1)CCc1cc(OC)c(OC)cc1-2,8,3.1%,0%,-15%
FC(F)(F)c1nc(NCc2cccnc2)c2ccccc2n1,x,2.0%,-6%,6%
O=C(Nc1ccc(F)cc1F)C1CCCN1S(=O)(=O)c1ccc(-c2ccc(=O)[nH]n2)s1 (stereo not given),x,-0.5%,1%,-8%
Clc1ccc(CNc2ccc3nnc(-c4ccccc4)n3n2)cc1,3,3.9%,-4%,-3%
CCOC(=O)N1CCN(C(=O)CCN2C(=O)/C(=C\c3ccccc3OC)SC2=S)CC1,x,-0.9%,-9%,0%
Cn1c(CNC(=O)c2ccco2)nnc1SCC(=O)N1CCN(c2ccccc2)CC1,x,2.6%,16%,0%
O=S(=O)(NCc1ccccn1)c1ccccc1,-10,-7.1%,-4%,-1%
Cc1cccc(-c2n[nH]c(=S)n2/N=C/c2ccc(C)s2)c1,4,-1.8%,u,0%
Cc1cccc(N2CC(O)(c3cccs3)[N+]3=C2CCCCC3)c1 (stereo not given),1,0.0%,6%,0%
O=C(COC(=O)Cn1cc(C(F)(F)F)ccc1=O)Nc1ccc(Br)cc1F,x,0.4%,20%,x

(list continues)
structure,GLA inh pH 4.5,Rango-impB inh,Rango release inh,miR-21 reporter
CC(=O)C1=C(C)NC(=O)NC1c1cc(Br)ccc1OCC(N)=O (stereo not given),7,-4.0%,-22%,-4%
Cc1cccc(NC(=S)NC2CCN(Cc3ccccc3)CC2)c1C,2,0.7%,22%,-5%
COc1ccc2nc(N3CCCC(O)C3)c(C#N)cc2c1 (stereo not given),-2,u,u,-52%
CCN(CC)CCCNC(=O)c1cc2nc(-c3ccccc3)cc(C(F)(F)F)n2n1,x,-1.9%,-12%,-1%
CC(=O)NCCC(=O)Nc1cc(S(=O)(=O)N2CCOCC2)ccc1N1CCOCC1,3,-2.3%,5%,-3%
CCOc1ccc(NC(=O)CN2C(=O)/C(=C3\SC(=S)N(C4CCS(=O)(=O)C4)C3=O)c3ccccc32)cc1 (stereo not given),0,5.3%,0%,-3%
NC(=O)[C@H]1CC2(CC(c3cccc(NC(=O)[C@H]4CCC(=O)N4)c3)=NO2)CN1C(=O)c1ccccc1C(=O)c1ccccc1 (stereo not given in full),3,7.3%,23%,8%
CCCCCC(=O)NCc1c(C(F)(F)F)nn(C)c1N1CCOCC1,-6,0.7%,4%,-1%
COc1cc(Br)cc(/C=C/c2ccc3cccc(O)c3n2)c1OC,x,-0.9%,16%,-10%
CCc1nnc(NC(=O)C2CCC(CNc3c(N4CCCCC4)c(=O)c3=O)CC2)s1 (stereo not given),-9,-0.1%,-1%,-1%
Cc1cc(C)cc(NC(=O)CCN2CC(C)OC(C)C2)c1 (stereo not given),6,-3.1%,20%,-4%
CCN(CC(=O)N1CCCC1)S(=O)(=O)c1ccc(F)cc1,x,-1.0%,-7%,-4%
CCn1c(/C=C/c2cc(Br)ccc2O)nc2ccccc2c1=O,x,u,u,2%
COc1ccc(N2CCN(C3CC(=O)N(C)C3=O)CC2)cc1 (stereo not given),0,-0.9%,0%,-6%
CCn1ncc(Br)c1C(=O)Nc1ccc(C(=O)OC(C)C)cc1,1,4.9%,u,-1%

More results
structure,GLA inh pH 4.5,Rango-impB inh,Rango release inh,miR-21 reporter
Cc1ccc(CNc2ccc(N3CCOCC3)c(Cl)c2)cc1,x,0.2%,-5%,-20%
CC(NC(=O)Nc1ccc([N+](=O)[O-])cc1)C(c1ccccc1)N1CCOCC1 (stereo not given),-2,-2.4%,-10%,0%
CC1=Nc2ccc3ccccc3c2C1(C)C,6,7.3%,9%,-6%
O=C(COc1ccc(F)cc1)Nc1nnc(-c2ccncc2)s1,1,u,u,-5%
COc1cccc(CNc2ccc(C)c(Cl)c2)c1,-12,0.6%,12%,-22%
COc1ccc(-c2nc3ccc(C(=O)NCCCN4CCOCC4)cc3nc2-c2ccc(OC)cc2)cc1,x,u,11%,3%
O=C(NCc1ccccn1)c1cccc(NS(=O)(=O)c2ccccc2)c1,x,-1.0%,12%,x
CCN(c1ccc(C)cc1)S(=O)(=O)c1nnc(NC(=O)c2ccco2)s1,x,-0.4%,3%,5%
CCSc1nnc(NC(=O)C2CSC3(C)CCC(=O)N23)s1 (stereo not given),x,0.7%,-20%,x
COc1ccc(N2CCN(CC(=O)NC(C)c3ccccc3)CC2)cc1 (stereo not given),x,-0.6%,22%,5%
Cc1cc(OCC(=O)N(C)c2c(N)n(Cc3ccccc3)c(=O)[nH]c2=O)c(C(C)C)cc1Cl,x,-0.6%,-4%,x
COC(=O)c1ccc(CSc2nncn2C)cc1,0,0.8%,-6%,-42%
COCc1ccc(C(=O)N2CCCC(C(=O)c3ccc(SC)cc3)C2)o1 (stereo not given),x,0.8%,34%,3%
C=CCn1c(C)cc(-c2csc(NCC)n2)c1C,9,u,u,-4%
COc1cccc(C(=O)NCCNC(=O)c2cnccn2)c1,x,-0.4%,1%,-3%

5 compounds out of the list above, ordered by the value under miR-21 reporter, lowest first:
structure,GLA inh pH 4.5,Rango-impB inh,Rango release inh,miR-21 reporter
CCC/C(=N/NC(=O)c1ccc2c(c1)OCO2)c1cccs1,11,-3.7%,1%,-47%
CCc1nnc(NC(=O)C2CCC(CNc3c(N4CCCCC4)c(=O)c3=O)CC2)s1 (stereo not given),-9,-0.1%,-1%,-1%
CCOC(=O)N1CCN(C(=O)CCN2C(=O)/C(=C\c3ccccc3OC)SC2=S)CC1,x,-0.9%,-9%,0%
COCc1ccc(C(=O)N2CCCC(C(=O)c3ccc(SC)cc3)C2)o1 (stereo not given),x,0.8%,34%,3%
CCN(c1ccc(C)cc1)S(=O)(=O)c1nnc(NC(=O)c2ccco2)s1,x,-0.4%,3%,5%

Going on with the list.
SMILES	GLA inh pH 4.5	Rango-impB inh	Rango release inh	miR-21 reporter
O=C(Cn1ncc2c([nH]c3ccccc32)c1=O)N1CCCCC1	x	-0.5%	-13%	2%
CCOC(=O)Cc1csc(NC(=O)c2ccc([N+](=O)[O-])cc2[N+](=O)[O-])n1	x	-1.2%	7%	6%
CCNC(=O)COC(=O)c1csc2c1CCCC2	16	2.1%	9%	1%
O=C(OCC(=O)c1ccc[nH]1)c1cncc(Br)c1	x	u	-8%	x
O=C1NC[C@@H](c2ccccc2)OC(=O)[C@@H](Cc2ccc(F)cc2)CC/C=C/C[C@H]1CC(=O)N(CCO)Cc1ccccc1	x	-0.7%	-11%	x
Nc1nc(SCC(=O)c2ccc(F)cc2)n[nH]1	13	2.4%	2%	-2%
COC(=O)c1ccc(NC(=O)CCN2CCN(c3ccccc3)CC2)cc1	4	-5.6%	-15%	-6%
CC1=C(C(=O)OC2CCCCC2)C(c2ccccc2)NC(=O)N1 (stereo not given)	x	-0.5%	-1%	0%
CCOc1ccc(NC(=O)c2ccc(OC)cc2)cc1	-4	-2.0%	-20%	-33%
Cc1cc(C)c(S(=O)(=O)n2c([N+](=O)[O-])cnc2C)cc1C	-17	3.1%	1%	-3%
CCOC(=O)c1c(NC(=O)C2c3ccccc3Oc3ccccc32)sc(C(=O)N(CC)CC)c1C	5	-0.1%	-1%	-5%
CC(=O)c1ccc(N2CCN(c3ncccn3)CC2)cc1	x	4.4%	-13%	-54%
COC(=O)C(C)N(C(=O)c1ccc(Cl)cc1)c1c(C)cccc1C (stereo not given)	-2	5.2%	-6%	6%
O=C(c1cnccn1)N1CCCC(N2CCN(c3cccc(Cl)c3)CC2)C1 (stereo not given)	x	0.6%	-12%	-10%
CC(C)(C)CC(=O)Nc1nnc(SCC(=O)Nc2ccccc2F)s1	0	1.3%	-8%	-2%
C=CCSc1nnc(NC(=O)CSc2nc(CCC)cc(=O)[nH]2)s1	3	2.1%	21%	4%
C/C(CC(=O)NC(C)(C)C)=N\NC(N)=S	8	-1.4%	-6%	4%
Cc1nn(-c2ccccc2Cl)c2sc(C(=O)Nc3nnc(C4CC4)s3)cc12	-4	0.2%	1%	-1%
COCCn1c(=O)c2c(nc3n2CCCN3CCc2ccccc2)n(C)c1=O	x	-1.2%	10%	5%
c1ccc(-c2onc3cc4c(cc23)OCCO4)cc1	-8	0.0%	u	-61%
COc1cc2c(C(=O)N(C)c3cc(Cl)ccc3OC)cn(C)c(=O)c2cc1OC	x	2.0%	u	-16%
COCCCNC(=O)c1ccc(CNS(=O)(=O)c2ccc(NC(C)=O)cc2)cc1	x	-1.5%	1%	-3%

Compound activity: PubChem BioAssay, National Center for Advancing Translational Sciences (NCATS)
